High-throughput results: PubChem, National Center for Advancing Translational Sciences (NCATS)
gsp antag – antagonists of gsp mutant (McCune-Albright syndrome) | gsp-mutant cells, cAMP HTRF, 30 min; control for the full effect not named in the record | Potency, µM (series often up to 76.9 µM), for the others: top-dose activity change, negative = inhibition, hits mostly inhibitors | 0.4% of 340,000 active | AID 624288; active = falling curve of any shape with a large fitted effect; inconclusive = falling curve, mostly with a smaller effect; inactive = flat or rising curve; cell line not stated here;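 also: intracellular cAMP measured with PDE inhibitor Ro 20-1724 present during compound exposure; potency is read from the fitted curve at half-maximal effect; % is scaled to controls: 0 for no effect and ±100 for the full control effect; nearly all actives have a fitted effect of over 65% in size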
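G418-selected cells were plated in DMEM/10% FBS for 16-24 h at 37C, then treated with compounds plus the PDE inhibitor […] (300 uM solution added) for 30 min at 37C. Intracellular cAMP was measured by HTRF after 30 min lysis at room temperature.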
Menin MLL FP FL – menin-MLL binding inhibition, fluorescein peptide; Fluorescence polarization, fluorescein-MLL peptide displacement from menin; FP activity change, % at 61.4 µM; 290,000 tested, under 10 active; AID 1766; inconclusive = falling polarisation curve, or a change in total fluorescence; inactive = total fluorescence flat and polarisation flat or rising; no compound was filed as active; the % refers to the polarisation; negative = inhibition;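 also: % of control where 0% means no effect; inhibitors lower the polarisation; unlabelled MLL peptide was the positive control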
ClpP mod – qHTS Assay for Activators of ClpP. ATP-dependent Clp protease proteolytic subunit (Bacillus subtilis (strain 168)), P80244. purified B. subtilis ClpP, FRET peptide cleavage, 20 min. Potency, µM (titrated, usually from 57.5 µM), for inactives: at the highest dose activity change, negative = active. 1.9% of 340,000 active; active = well fitted falling curve with a large enough effect; inconclusive = small, poorly fitted or top-dose-only effect; inactive = no such curve, though single readings can be large or run the other way; also: potency is read from the fitted curve at half-maximal effect; the source files actives as falling curves though it sought activators and does not explain the sign; nearly all actives have a fitted effect of over 65% in size; many hits overshoot -100%
Target sequence (P80244 whole entry, looked up): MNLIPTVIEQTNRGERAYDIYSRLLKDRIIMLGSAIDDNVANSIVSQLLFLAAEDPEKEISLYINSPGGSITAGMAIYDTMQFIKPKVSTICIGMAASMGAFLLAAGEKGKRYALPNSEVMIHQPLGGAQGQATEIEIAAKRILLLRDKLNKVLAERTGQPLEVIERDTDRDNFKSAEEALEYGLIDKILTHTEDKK
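Buffer: 100 mM Tris/HCl pH8, 100 mM KCl, 0.05% low protease BSA, 2.5% glycerol, 0.01% Tween-20. ClpP 10 microg/mL final; 20 min RT; delta FRET normalized to ADEP and DMSO controls.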
Sfp PPTase inh – blocks B. subtilis Sfp PPTase activity; 3.5% of 310,000 active; Potency, µM, inactives show max response, negative = inhibition, hits mostly inhibitors; Q9F4F7; Biochemical Sfp PPTase activity, qHTS; active = well fitted inhibition curve with a large enough effect; inconclusive = small, poorly fitted or top-dose-only effect, or another doubt; inactive = no such curve, though single readings can be large or run the other way;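 also: the enzyme is Sfp with the accession as filed and its product quenches rhodamine fluorescence; potency is read from the fitted curve at half-maximal effect; 0% = enzyme reaction without inhibitor and -100% = no enzyme wells; top concentration of the series not given in the record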
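Fluorescence-quenching assay with 15 nM Sfp, 5 uM rhodamine-CoA and 12.5 uM BHQ-2-labelled ybbR peptide in pH 7.6 Hepes/MgCl2 buffer. Enzyme was pre-incubated with compound for 15 min at room temperature. Rate was taken from the 30-min fluorescence change (525/598 nm).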
CtBP-E1A blk – inhibitors of CtBP/E1A interaction | AlphaScreen GST-E1A/His-CtBP binding, 1536-well; stronger effect = lower value; control for the full effect not named in the record | 0.49% of 340,000 active | activity change, % (no concentration beside the values); in the data active means activity change below about -65%; inconclusive means about -30% to -65%; inactive means above about -30%; also: % is scaled to controls: 0 for no effect and ±100 for the full control effect; compound concentration not given in the record
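AlphaScreen with 125 nM GST-E1A and 125 nM His-CtBP (5X stocks) in Tris pH 8.0, 300 mM NaCl, BSA, Tween 20, TCEP. Compounds preincubated 2 h at 37 deg C, then glutathione donor/nickel acceptor beads added for 1 h at 37 deg C in dark.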
TRPV1 PAM – human TRPV1 potentiation. TRPV1-expressing cells, Fluo-8 calcium influx, capsaicin EC20 potentiation; host cell line not named in the record; control for the full effect not named in the record. potentiation, % at 8.33 µM. 0.02% of 320,000 active; active means potentiation above 80%; inconclusive means 30% to 80%; inactive means below 30%; also: 0% is about no effect
Target sequence (Q8NER1 whole entry, looked up): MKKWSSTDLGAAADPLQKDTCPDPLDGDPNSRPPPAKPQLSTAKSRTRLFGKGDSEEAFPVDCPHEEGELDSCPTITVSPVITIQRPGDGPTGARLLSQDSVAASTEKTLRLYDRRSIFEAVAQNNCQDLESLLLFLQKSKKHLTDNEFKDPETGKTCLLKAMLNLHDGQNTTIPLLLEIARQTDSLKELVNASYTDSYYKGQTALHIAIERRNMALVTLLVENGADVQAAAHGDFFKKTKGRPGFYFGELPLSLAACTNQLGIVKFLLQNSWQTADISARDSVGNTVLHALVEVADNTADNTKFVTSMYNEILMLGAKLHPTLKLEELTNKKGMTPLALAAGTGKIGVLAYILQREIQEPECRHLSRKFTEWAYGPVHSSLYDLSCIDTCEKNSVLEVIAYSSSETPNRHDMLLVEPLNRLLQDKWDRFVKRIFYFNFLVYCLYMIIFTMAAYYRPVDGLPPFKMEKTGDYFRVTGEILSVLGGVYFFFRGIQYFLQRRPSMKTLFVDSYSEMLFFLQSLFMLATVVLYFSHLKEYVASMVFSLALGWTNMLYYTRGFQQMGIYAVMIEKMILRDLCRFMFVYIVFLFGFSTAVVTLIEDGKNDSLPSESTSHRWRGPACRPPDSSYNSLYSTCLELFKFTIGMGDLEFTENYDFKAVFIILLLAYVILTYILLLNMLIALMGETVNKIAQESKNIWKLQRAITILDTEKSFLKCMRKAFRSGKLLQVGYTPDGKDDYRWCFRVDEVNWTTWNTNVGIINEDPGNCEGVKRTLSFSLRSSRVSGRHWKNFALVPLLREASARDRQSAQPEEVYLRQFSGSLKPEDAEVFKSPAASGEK
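TRPV1-expressing cells were cultured overnight at 35.5C and loaded with Fluo-8 calcium dye for 40 to 90 min at room temperature. After a 10 s baseline, compound was added and calcium influx was read kinetically for 3 min (ex 480/em 520 nm).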
gsp agonist – agonists of gsp mutant (McCune-Albright syndrome). gsp mutant cells, cAMP HTRF, 30 min; control for the full effect not named in the record. Potency, µM (series often up to 76.9 µM), inactives show top-dose activation (cAMP increase), hits mostly activators. 0.13% of 340,000 active. AID 624287; active = well fitted activation curve with a large enough effect; inconclusive = small, poorly fitted or top-dose-only effect, or another doubt; inactive = no such curve, though single readings can be large or run the other way; cell line not stated here;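 also: phosphodiesterase inhibitor Ro 20-1724 added with compounds to block cAMP breakdown; potency is read from the fitted curve at half-maximal effect; nearly all actives have a fitted effect of over 60% in size; about a fifth of the inactives were tested at one dose only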
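Cells stably selected in G418 were plated at 2000/well, grown 16-24 hr, then given compounds in DMSO with the PDE inhibitor […] (300 uM solution added) for 30 min at 37C; cAMP was read by HTRF.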
* marks the source's active call; other numbers are inactive results; ? = inconclusive; . = not tested or not shown; & = joins results of further samples; [ ] = another dose, or the depositor's remark. Rows are unselected. About 5.3% of those tested had a hit in this group.

SMILES	gsp antag	Menin MLL FP FL	ClpP mod	Sfp PPTase inh	CtBP-E1A blk	TRPV1 PAM	gsp agonist
O=C1c2oc3ccccc3c(=O)c2C(c2cccc(O)c2)N1c1ccccn1 (centres undefined)	-5%	2.0	-3.6%	-4%	-15	-2	4%
Cc1c(C(=O)NCC2CCCO2)oc2ccccc12 (centres undefined)	13%	.	-1.8%	.	12	-1	-10%
O=S(=O)(Cc1ccccc1)N1CCN(Cc2ccc(Br)cc2)CC1	8%	.	0.6%	13%	18	-9	1%
COc1ccc(S(=O)(=O)N2CCCCCC2)cc1C(=O)N(C)CCOc1ccccc1	-16%	.	-1.9%	.	4	-10	7%[15.4 µM]
Cc1ccc(C(=O)N/C(=C\c2cn(S(=O)(=O)N(C)C)c3ccccc23)C(=O)N2CCCC2)cc1	-5%	.	0.6%	-7%	0	5	13%
Cc1ccccc1C(=O)NC(=S)Nc1ccc(S(=O)(=O)N2CCN(C)CC2)cc1	2%	2.3	2.3%	?	-9	-2	0%
Cn1c(=O)c2c(nc(N3CCOCC3)n2CCSc2ncccn2)n(C)c1=O	1%	-0.3	0.6%	9%	-2	-2	-7%
COc1cccc(/C=N\NC(=O)C2C(=O)NCC2c2ccccc2)c1O (centres undefined)	-1%	0.2	-2.8%	17%	-90*	8	8%
Cc1c(NC(=O)CSc2nccn2C)c(=O)n(-c2ccccc2)n1C	7%	-1.1	-2.3%	7%	9	-6	-3%
COCCCn1c(SCC(N)=O)nnc1-c1ccccc1	6%	1.5	0.6%	2%	4	1	-6%
Cc1cc(C)n2nc(C(=O)Nc3ccc(S(=O)(=O)N4CCCC4)cc3)nc2n1	-4%	4.1	.	25%	0	9	16%[15.4 µM]
c1ccc(-c2nc(N3CCCCC3)nc3ccccc23)cc1	-7%	11	-4.1%	?	156	-2	-48%[inhibitor]
COc1ccccc1-n1cnnc1SCC(=O)NC1CCS(=O)(=O)C1 (centres undefined)	.	0.3	.	14%	-7	8	-13%[15.4 µM]
COCc1cc(=O)[nH]c(-c2ccccc2)n1	17%	-2.9	2.2%	6%	3	-9	19%
CCCCNC(=O)C(C)N(CCN(C)C)C(=O)CCCCCN1C(=O)NC(c2ccc(Cl)cc2)C(C(=O)OCc2ccccc2)=C1C (centres undefined)	-18%	.	-1.6%	.	-5	.	.
COc1ccccc1CN1CCNC(=O)C1CC(=O)NCCOc1cccnc1 (centres undefined)	2%	-3.3	.	12%	4	6	?
O=C(CCCSc1nnnn1-c1ccccc1)c1ccc(F)cc1	.	-0.2	.	-18%	.	-7	.
COCCn1c(SCC(=O)Nc2cc(C)cc(C)c2)nc2ccccc2c1=O	-15%	-0.4	9.6%	-1%	.	-1	-36%
COc1ccc(Oc2cc(C(F)(F)F)nc(N(C)C)n2)cc1	-4%	-1.5	.	11%	4	12	-2%[15.4 µM]
O=C(Nc1cccc(Cl)c1N1CCOCC1)c1ccco1	3%	-0.8	.	3%	8	-17	-6%
CCc1cccc(CC)c1NC(=S)NCc1ccc2c(c1)OCO2	7%	6.7	0.2%	8%	2	-7	-1%[15.4 µM]
Cc1ccc(CC(CC(=O)O)C(=O)NCC23CC4CC(CC(C4)C2)C3)cc1 (centres undefined)	-12%	-10	.	-5%	.	0	6%[15.4 µM]
COc1cccc(-c2noc(-c3cccs3)n2)c1	-10%	1.7	-7.8%	0%	37	2	-3%
Cc1ccc(NC(=O)COC(=O)Cc2c[nH]c3ccccc23)cc1F	6%	.	1.1%	.	-1	3	-6%
CS(=O)(=O)Nc1ccc2c(c1)C(=O)OC2	10%	-2.1	-1.5%	6%	1	0	-40%[inhibitor]
The list continues:
SMILES	gsp antag	Menin MLL FP FL	ClpP mod	Sfp PPTase inh	CtBP-E1A blk	TRPV1 PAM	gsp agonist
Cc1cc(C)nc(NC(=O)c2ccc(C)o2)n1	9%	.	-3.6%	10%	-21	2	?
c1cncc(-c2ccnc3ncnn23)c1	-8%	-3.2	.	29%	-1	-3	25%
O=C(Cn1cnc2cc(Cl)ccc2c1=O)Nc1ccc2c(c1)OCO2	6%	2.8	1.7%	11%	0	1	-8%
CCOc1ccc(Cl)cc1/C=N/NC(=O)CNC(=O)c1ccccc1	-15%	11	-17%	17%	1	4	-16%
Cc1cc(Cl)ccc1OCC(=O)Nc1ccccc1C(=O)N1CCOCC1	4%	.	1.0%	12%	3	-10	22%[15.4 µM]
O=C1NC(=S)N/C1=C\c1ccc(N2CCOCC2)cc1	20%	0.1	0.1%	9%	.	-12	-16%
CCN(c1ccccc1)S(=O)(=O)c1ccc(Cl)c(NC(=O)CSc2nnc(C)s2)c1	-15%	-1.9	-1.2%	4%	.	2	-21%
CCOCCCNC(=O)C(c1ccc(OC)cc1)N(Cc1cccs1)C(=O)c1ccccc1O (centres undefined)	?	1.2	-1.4%	3%	-1	0	4%[15.4 µM]
COc1cc(C(=O)NCC(c2ccco2)N2CCc3ccccc32)cc(OC)c1OC (centres undefined)	-7%	.	.	.	-5	2	10%[15.4 µM]
Cc1nnc2nc(-c3ccccc3)nc(-c3ccccc3)n12	-13%	-2.7	3.9%	-7%	.	-19	?
COc1cc2c(cc1OC)C(COc1ccc3c(C)cc(=O)oc3c1)N(C(=O)c1ccco1)CC2 (centres undefined)	1%	0.7	19%	-4%	-3	-16	-43%[inhibitor]
CCN(CC)CCSc1nc2ccccc2c(=S)n1-c1ccccc1	10%	-17	.	-7%	-16	9	1%[15.4 µM]
CCOc1ccc2c(c1)ncn2Cc1ccccc1	0%	-2.2	.	16%	4	11	14%[15.4 µM]
CCC(=O)Nc1sc(C(=O)Nc2ccccc2)c(C)c1C(=O)OC	-10%	1.6	-0.9%	-14%	.	-5	5%
COC(=O)C(C)n1cnc2c(nnn2-c2cccc(OC)c2)c1=O (centres undefined)	-14%	1.4	.	7%	-12	18	?
O=C(O)Cn1cc(/C=C2\SC(=O)N(c3ccccc3)C2=O)c2ccccc21	-8%	16	.	-2%	2	11	13%
CCOc1ccc(CN(C)C(=O)CNC(=O)C2CCCCC2)cc1	-3%	.	.	5%	-1	11	-11%[15.4 µM]
Nc1cc(=O)[nH]c(SCc2ccc(Cl)cc2Cl)n1	5%	-0.6	-0.4%	3%	.	10	-13%
O=C(CN(C(=O)CCC(=O)Nc1nccs1)c1cccc(F)c1)NCc1ccc(F)cc1	1%	-0.3	.	1%	6	12	?
CN1C(=O)c2oc3ccc(Br)cc3c(=O)c2C1c1ccncc1 (centres undefined)	.	11	.	40µM*	.	6	.
O=C(NCCc1ccc(F)cc1)C1CCC(=O)N(CC2CCCCC2)C1 (centres undefined)	.	.	1.5%	.	4	.	-63%[inhibitor]
CC(=O)OCCNc1cc(Sc2nc3ccccc3[nH]2)c2nonc2c1[N+](=O)[O-]	?	3.7	-2.7%	1.6µM*	-2	14	?
N#CCCn1c(-c2nonc2NC(=O)c2ccccc2Cl)nc2ccccc21	7%	2.8	-1.0%	-2%	-3	-6	9%
Cc1ccc(C)c(Cn2nnc3c(=O)[nH]c(C(=O)NCc4ccco4)nc32)c1	?	3.7	-0.4%	-25%	8	2	-18%
CCCOc1ccccc1N/C(=N/c1nc(C)cc(C)n1)NC(=O)COc1ccc(OC)cc1	7%	0.8	-9.4%	?	0	3	3%
Next compounds follow:
SMILES	gsp antag	Menin MLL FP FL	ClpP mod	Sfp PPTase inh	CtBP-E1A blk	TRPV1 PAM	gsp agonist
CN(CCC#N)C(=O)COc1ccc(Br)cc1Cl	7%	3.5	.	22%	-14	-8	21%
COc1ccc(OC)c2c1cc(C(=O)N[C@@H](C)C(=O)N[C@@H](C(=O)O)c1ccccc1)n2C	7%	-0.6	-6.6%	4%	-13	10	17%
COc1ccc(C(CNC(=O)c2cc(S(=O)(=O)Nc3cccc(C)c3)ccc2C)N2CCCC2)cc1 (centres undefined)	2%	.	-4.3%	.	-23	.	-6%
Cc1cc(C)nc(NS(=O)(=O)c2ccc(N)cc2)n1	0%	5.5	1.6%	-9%&11%&-4%&12%&15%	5	1&2&8	.
CC(C)N(Cc1nc(-c2ccccc2)no1)C(=O)C(Cl)(Cl)Cl	-46%	4.7	-0.3%	-8%	16	?	40%[15.4 µM]
Cc1cnc(NC(=O)c2cc3c(C)nn(Cc4ccccc4Cl)c3s2)s1	6%	1.4	11%	10%	1	2	6%
Cc1cc(N)n(Cc2cccs2)n1	14%	5.3	-1.0%	-1%	.	3	-46%[inhibitor]
CC1CN(C(=O)c2ccc(Oc3ccccc3)cc2)CC(C)O1 (centres undefined)	-4%	13	.	-3%	-16	-8	23%
Cc1ccccc1C(=O)Nc1ccc(N2CCOCC2)nc1	3%	4.9	1.9%	19%	10	-6	-29%
O=C1C2C(c3ccccc3)C=CC(c3ccccc3)C2C(=O)N1C1CCCCC1 (centres undefined)	3%	1.2	?	5%	-4	-2	-3%
COc1ccc(CN2CCN(S(=O)(=O)c3ccc(NC(C)=O)cc3)CC2)cc1	-1%	0.3	-4.5%	?	-3	-1	-21%
CN(Cc1ccccc1)C(=O)c1ccc(NC(=O)Cc2ccc(NC(=O)C3CCN(C(=O)c4ccccc4)CC3)cc2)cc1	5%	.	1.1%	.	2	.	.
O=C(N/N=C/c1ccccc1)NC1CCCCC1	7%	3.3	-2.3%	-18%	-11	-12	-18%
COc1cccc2cc(C(=O)C3=C(O)C(=O)N(c4cc(C)on4)C3c3cccs3)oc12 (centres undefined)	-12%	14	-2.0%	-29%	-8	-5	7.9µM*
Cc1c(Cl)cccc1NC(=O)c1cccc(OC(F)F)c1	-22%	-0.1	-0.1%	-10%	10	2	6%
COc1ccc(-c2cn3cccnc3n2)cc1NC(=O)CC(C)C	-2%	3.4	28µM*	7%	-1	12	25%
COc1ccc(C2=Nn3c(nnc3-c3ccccc3OC)SC2)cc1OC	9%	5.3&-1.0	-2.5%&1.6%	6%&16%	?	-1	6%
CC(=O)NC(=O)COC(=O)c1ccc2ncsc2c1	-8%	0.4	-0.6%	0%	1	-2	-1%
O=C(Cc1ccccc1)NNC1CC(=O)N(c2ccc(Br)cc2)C1=O (centres undefined)	0%	7.1	?	16%	-1	16	7%[15.4 µM]
